# TRPV1 PAM = enhances activation of the human vanilloid receptor TRPV1. Q8NER1. TRPV1-expressing cells, Fluo-8 calcium influx, capsaicin EC20 potentiation; host cell line not named in the record; control for the full effect not named in the record. potentiation, % at 8.33 µM. hit rate 0.02% among 320,000; active means potentiation above 80%; inconclusive means 30% to 80%; inactive means below 30%; also: 0% is about no effect
# Target sequence (Q8NER1 whole entry, looked up): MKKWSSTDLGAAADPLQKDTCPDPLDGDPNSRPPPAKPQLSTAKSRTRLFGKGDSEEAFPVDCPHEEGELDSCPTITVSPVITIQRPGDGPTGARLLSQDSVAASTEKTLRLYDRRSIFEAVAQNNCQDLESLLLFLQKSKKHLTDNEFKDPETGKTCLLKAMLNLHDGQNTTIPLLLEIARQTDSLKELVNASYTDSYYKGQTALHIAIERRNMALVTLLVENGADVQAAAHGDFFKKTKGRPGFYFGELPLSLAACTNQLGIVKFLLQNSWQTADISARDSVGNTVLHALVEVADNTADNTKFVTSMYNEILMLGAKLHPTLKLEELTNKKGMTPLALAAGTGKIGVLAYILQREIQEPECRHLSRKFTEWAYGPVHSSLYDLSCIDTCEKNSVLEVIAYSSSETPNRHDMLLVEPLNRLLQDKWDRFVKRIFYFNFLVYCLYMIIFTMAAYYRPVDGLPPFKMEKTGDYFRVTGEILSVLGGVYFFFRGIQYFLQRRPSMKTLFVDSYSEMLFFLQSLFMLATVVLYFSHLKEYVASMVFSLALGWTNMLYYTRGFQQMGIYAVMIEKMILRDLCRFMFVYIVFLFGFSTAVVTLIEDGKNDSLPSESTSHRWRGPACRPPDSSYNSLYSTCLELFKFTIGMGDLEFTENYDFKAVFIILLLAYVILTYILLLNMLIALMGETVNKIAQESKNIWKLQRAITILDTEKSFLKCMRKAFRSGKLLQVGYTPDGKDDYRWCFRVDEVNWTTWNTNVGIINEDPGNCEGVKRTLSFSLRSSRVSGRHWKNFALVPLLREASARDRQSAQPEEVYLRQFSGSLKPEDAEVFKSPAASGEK
#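 TRPV1-expressing cells were cultured overnight at 35.5C and loaded with Fluo-8 calcium dye for 40 to 90 min at room temperature. After a 10 s baseline, compound was added and calcium influx was read kinetically for 3 min (ex 480/em 520 nm).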
# Menin MLL FP FL = inhibitors of human menin-MLL interaction, wild-type MLL peptide | Fluorescence polarization, fluorescein-MLL peptide displacement from menin | FP activity change, % at 61.4 µM | 290,000 tested, under 10 active | AID 1766; inconclusive = falling polarisation curve, or a change in total fluorescence; inactive = total fluorescence flat and polarisation flat or rising; no compound was filed as active; the % refers to the polarisation; negative = inhibition;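 also: % of control where 0% means no effect; inhibitors lower the polarisation; unlabelled MLL peptide was the positive control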
# gsp antag = antagonists of gsp mutant (McCune-Albright syndrome); Potency, µM (highest dose often 76.9 µM), inactives show at the highest dose activity change, negative = inhibition, actives largely listed as inhibitors; AID 624288; gsp-mutant cells, cAMP HTRF, 30 min; control for the full effect not named in the record; hit rate 0.4% among 340,000; active = falling curve of any shape with a large fitted effect; inconclusive = falling curve, mostly with a smaller effect; inactive = flat or rising curve; cell line not stated here;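 also: intracellular cAMP measured with PDE inhibitor Ro 20-1724 present during compound exposure; potency is read from the fitted curve at half-maximal effect; % is scaled to controls: 0 for no effect and ±100 for the full control effect; nearly all actives have a fitted effect of over 65% in size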
#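 HTRF cAMP read-out (cAMP-d2 plus anti-cAMP antibody-K in lysis buffer, 30 min RT). Before lysis, cells are exposed to compounds with […] for 30 min at 37C in DPBS containing Ca/Mg, BSA and Tween 20.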
# ClpP mod = qHTS Assay for Activators of ClpP; Potency, µM (series often up to 57.5 µM), for the others: top-dose activity change, negative = active; ATP-dependent Clp protease proteolytic subunit (Bacillus subtilis (strain 168)), P80244; purified B. subtilis ClpP, FRET peptide cleavage, 20 min; hit rate 1.9% among 340,000; active = well fitted falling curve with a large enough effect; inconclusive = small, poorly fitted or top-dose-only effect; inactive = no such curve, though single readings can be large or run the other way; also: potency is read from the fitted curve at half-maximal effect; the source files actives as falling curves though it sought activators and does not explain the sign; nearly all actives have a fitted effect of over 65% in size; many hits overshoot -100%
# Target sequence (P80244 whole entry, looked up): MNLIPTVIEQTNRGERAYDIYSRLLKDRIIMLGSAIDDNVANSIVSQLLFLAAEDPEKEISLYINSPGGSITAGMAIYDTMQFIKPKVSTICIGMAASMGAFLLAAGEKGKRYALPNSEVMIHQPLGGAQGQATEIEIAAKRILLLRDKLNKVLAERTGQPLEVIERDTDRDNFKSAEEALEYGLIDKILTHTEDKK
#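 Purified B. subtilis ClpP, 10 microg/mL final in Tris/HCl pH8 with KCl, BSA, glycerol and Tween-20, cleaved an Abz/nitrotyrosine-quenched decapeptide. Fluorescence (ex 320, em 430) was read at 0 and 20 min at room temperature. Delta was normalized to 5.8 microM ADEP and DMSO/no-enzyme controls.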
# Sfp inh = blocks B. subtilis Sfp PPTase activity; Q9F4F7; Biochemical Sfp PPTase activity, qHTS; Potency, µM, for inactives: max response, negative = inhibition, usual class: inhibitors; hit rate 3.5% among 310,000; active = well fitted inhibition curve with a large enough effect; inconclusive = small, poorly fitted or top-dose-only effect, or another doubt; inactive = no such curve, though single readings can be large or run the other way;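 also: the enzyme is Sfp with the accession as filed and its product quenches rhodamine fluorescence; potency is read from the fitted curve at half-maximal effect; 0% = enzyme reaction without inhibitor and -100% = no enzyme wells; top concentration of the series not given in the record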
#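 Buffer: 50 mM Hepes-Na pH 7.6, 10 mM MgCl2, 0.01% Nonidet P-40, 0.01% BSA. Enzyme 15 nM, pre-exposed to compound 15 min; substrates then added and fluorescence change tracked over 30 min.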
# CtBP-E1A blk = blocks the CtBP interaction with E1A; hit rate 0.49% among 340,000; activity change, % (concentration not given with the values); AlphaScreen GST-E1A/His-CtBP binding, 1536-well; hits give low values; control for the full effect not named in the record; in the data active means activity change below about -65%; inconclusive means about -30% to -65%; inactive means above about -30%; also: % is scaled to controls: 0 for no effect and ±100 for the full control effect
#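 Steps: dispense buffer (Tris pH 8.0, NaCl 300 mM, TCEP 1 mM, BSA, Tween 20); add 5X protein mix (GST-E1A, His-CtBP, 125 nM each); pin 23 nL compound; 2 h at 37 °C, dark; add 5X beads (50 ug/mL); 1 h; read.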
# gsp agonist = activates gsp, the McCune-Albright syndrome mutation. Potency, µM (top dose mostly 76.9 µM), for inactives: top-dose activation (cAMP increase), most hits filed as activators. gsp mutant cells, cAMP HTRF, 30 min; control for the full effect not named in the record. AID 624287. hit rate 0.13% among 340,000; active = well fitted activation curve with a large enough effect; inconclusive = small, poorly fitted or top-dose-only effect, or another doubt; inactive = no such curve, though single readings can be large or run the other way; cell line not stated here;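 also: phosphodiesterase inhibitor Ro 20-1724 added with compounds to block cAMP breakdown; potency is read from the fitted curve at half-maximal effect; nearly all actives have a fitted effect of over 60% in size; about a fifth of the inactives were tested at one dose only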
#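 Cells stably selected in G418 were plated at 2000/well, grown 16-24 hr, then given compounds in DMSO with the PDE inhibitor […] (300 uM solution added) for 30 min at 37C; cAMP was read by HTRF.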
# An asterisk follows results filed as active; ? = inconclusive; · = no result given; [ ] = remark or other dose. Random draw from the library. Share with any hit: about 5.3%.
nr	SMILES	TRPV1 PAM	Menin MLL FP FL	gsp antag	ClpP mod	Sfp inh	CtBP-E1A blk	gsp agonist
1	COC(=O)/C=C1/SC(=NC(=O)c2ccc(OC)cc2)NC1=O	-0.5	·	-9.0%	0.6%	-18.3%	·	-32.6%[inhibitor]
2	CCc1c(C#N)c(SCCC(=O)Nc2ccc(F)cc2)nc2c1C(=O)CC(C)(C)C2	-2.4	0.8	?	-0.8%	0.2%	1.1	1.5%
3	O=C(COC(=O)c1c(F)cccc1F)Nc1ccccc1OC(F)F	-6.3	-1.0	3.8%	·	15.8%	5.7	3.5%[15.4 µM]
4	Cc1cc(C)n2nc(C(=O)Nc3ccn(Cc4ccccc4C)n3)cc2n1	4.6	-1.6	-13.5%	?	-8.2%	-12.5	25.0%
5	CC(C)(C)C(=O)Nc1nnc(CC(=O)NCc2ccccc2)s1	6.3	-0.2	8.3%	·	18.2%	1.9	?
6	CCN(CC)C(=O)c1cn(-c2cccc(OC)c2)c(=O)c2ccccc12	16.2	1.4	-2.0%	-13.6%	10.9%	-0.5	-0.6%
7	CCCCCCOC(=O)CCn1[nH]c(=O)c2ccccc2c1=O	6.4	-1.3	-25.7%	-4.0%	-4.0%	1.2	-32.3%[inhibitor]
8	CN(C)[C@@H]1CCC[C@H]1OC(=O)C(c1ccccc1)c1ccccc1	-3.2	0.9	15.4%	1.1%	7.5%	-4.9	-24.4%
9	N=c1oc2cc(O)ccc2cc1C(=O)Nc1nc2ccccc2s1	14.4	?	1.1%	?	1.3%	1.6	-98.2%[inhibitor]
10	Cc1ccc(OCC(=O)N/N=C/C=C/c2ccco2)c(Br)c1	17.2	1.0	-1.4%	-0.7%	50.1µM*	-9.5	-16.8%
11	COc1ccccc1C(=O)Nc1nnc(SCC(=O)NCC2CCCO2)s1 (centres undefined)	5.8	·	-7.8%	-2.5%	10.8%	4.2	9.9%
12	O=C(N/N=C/c1cc2ccccc2nc1Cl)/C(=C/c1cccs1)NC(=O)c1ccccc1	11.1	2.1	2.0%	-19.8%	17.1%	?	13.0%
13	Cc1nn(C)c(C)c1S(=O)(=O)N1CCC(C(=O)Nc2ccc3c(c2)OCCO3)CC1	-0.6	1.3	-1.7%	3.0%	4.3%	1.1	-1.5%
14	Cc1cccc(-c2ncc(CN3CCN(CCC(C)C)C(CCO)C3)cn2)c1 (centres undefined)	2.1	-4.3	5.7%	·	8.8%	-29.6	8.1%[15.4 µM]
15	CNC(=O)C1CC(=O)N(c2ccc(OCC(=O)Nc3ccccc3C)cc2)C1 (centres undefined)	1.5	·	-5.9%	-1.4%	·	2.4	-9.0%
16	COc1ccc2oc(C(=O)NCC(c3ccco3)N(C)C)c(C)c2c1 (centres undefined)	20.3	·	10.0%	28.2µM*	·	-2.2	3.9%
17	COc1ccc(/C=C2/SC(=O)N(CCCCCC(=O)Nc3ccccc3C(=O)O)C2=S)cc1	23.4	-2.6	22.4µM*	·	1.4%	-5.3	17.6%
18	CCCOc1ccc(C(=O)Nc2c[nH]c(=O)[nH]c2=O)cc1	8.1	2.0	9.6%	-7.0%	5.5%	-4.6	12.6%[15.4 µM]
19	CCOc1ccc(CCNC(=O)C2CCN(S(=O)(=O)N3CCCCC3)CC2)cc1OCC	-9.4	2.9	-8.0%	0.9%	3.3%	-1.8	3.5%
20	Cc1ccc(C)n1-c1ccc(C(=O)NN=C2CCCC2)cc1	-9.8	1.9	0.3%	·	18.0%	3.6	16.1%[15.4 µM]
21	COc1cc(NC(=O)Cc2ccccc2OC)cc(OC)c1	?	1.6	-1.0%	0.3%	3.1%	5.7	-3.8%
22	CCN(CC(=O)Nc1ccc2c(c1)OCCO2)C(=O)C1CC(=O)N(c2ccc(OC)cc2OC)C1 (centres undefined)	27.2	·	14.1%	-3.7%	·	2.2	0.5%
23	Cc1ccc(Cn2cnc3c(cnn3C(C)(C)C)c2=O)cc1	-0.2	-2.3	10.2%	1.4%	9.2%	5.8	4.7%
24	O=C(CN1c2cccc3cccc(c23)S1(=O)=O)NCCc1ccc(F)cc1	·	·	-5.2%	19.6%	·	-14.0	23.6%
25	O=C(NCc1ccc2c(c1)OCO2)C1CCN(c2nccc(C(F)(F)F)n2)CC1	-16.8	4.3	11.6%	-6.0%	-6.4%	·	15.4%
26	O=C(CNS(=O)(=O)c1ccc(Br)s1)NCc1ccc2c(c1)OCO2	-2.3	2.3	2.7%	-2.1%	13.5%	-1.2	-41.5%[inhibitor]
27	COc1cc2nc(C3CCC3)n(NC(=O)C3CCC3)c(=O)c2cc1OC	3.1	-1.7	-1.0%	-0.3%	-1.4%	-0.9	7.8%
28	CCCCn1c(N)c(N(Cc2ccccc2OC)C(=O)COc2ccc(C)cc2)c(=O)[nH]c1=O	-7.8	·	5.9%	-6.5%	·	0.1	6.0%
29	CCn1c(C)nc2cc(C(=O)N=Nc3c(O)[nH]c4ccccc34)ccc21	8.0	-1.3	·	·	33.6%[activator]	·	·
30	COCc1cccc(NC(=O)Cc2cccc3ccccc23)c1	12.5	-7.3	9.3%	·	7.2%	-2.9	-36.2%[15.4 µM]
31	CCOC(=O)CNC(=S)N(Cc1cccs1)C1CCCC1	3.9	-1.0	0.4%	-2.2%	5.8%	1.1	-11.2%
32	CCc1nc(SCC(=O)c2cccc([N+](=O)[O-])c2)n[nH]1	6.2	-0.9	4.8%	0.3%	?	2.4	14.1%
33	Cc1cc(C)c(C#N)c(Oc2ccc(O)cc2)n1	-6.7	-0.3	-7.3%	-4.4%	11.4%	3.8	-11.6%
34	CC1=CC(C)(C)N(C(=O)CSc2nnc(-c3ccccc3)o2)c2ccc(C)cc21	?	8.3	5.0%	-0.1%	-23.5%	4.3	4.4%
35	COc1cc(/C=N/NC(=O)Cc2ccccc2)cc(OC)c1OC	-0.4	5.7	-1.0%	-11.9%	5.6%	·	-19.8%
36	COc1cc(NC(=O)c2c(-c3ccccc3Cl)noc2C)c2ncccc2c1	·	·	-19.5%	·	·	4.4	-10.2%[15.4 µM]
37	CCCC[C@@H]1C=C(C(=O)O)[C@H](c2ccc(CC)cc2)N1S(=O)(=O)c1ccc(C)cc1	·	·	-2.4%	2.2%	·	-0.3	·
38	O=C(CN1CC(c2ccccc2)CC1=O)N/N=C/c1cc(Br)ccc1O (centres undefined)	9.1	4.5	-24.4%	-3.4%	-23.4%	-89.8*	25.8%
39	COc1ccc(C)cc1NC(=O)NC1CCN(Cc2ccccc2)CC1	-3.0	-0.1	-2.2%	-1.1%	1.3%	-0.1	-9.3%
40	Cc1ccsc1C1C=C(c2cccc(Br)c2)Nc2ncnn21 (centres undefined)	-0.6	?	-2.2%	?	44.7µM*	-1.3	8.9%
41	CCC(CC)C(=O)c1c[nH]c(C(=O)NCCCn2ccnc2)c1	0.3	5.8	2.5%	0.9%	4.4%	4.4	-25.7%
42	COc1ccccc1NS(=O)(=O)c1ccc(C)c(C(=O)NCC2(N(C)C)CCCCC2)c1	-12.2	·	3.8%	0.0%	·	-22.6	-30.8%[inhibitor]
43	CCN(CC)C(=O)[C@H]1C[C@H](CC(=O)NCc2ccco2)C(=O)N2CCc3c([nH]c4cc(CCC(=O)N(C)C)ccc34)[C@]12C	·	·	0.9%	-4.3%	·	3.4	·
44	Cc1cc(C(=O)Cn2nc(C(=O)O)c3ccccc3c2=O)c(C)n1CC(F)(F)F	-1.8	-2.3	3.5%	-1.2%	2.3%	-4.9	6.5%[15.4 µM]
45	CN1CCc2cc3c(c4c2[C@H]1[C@H](O)c1ccccc1-4)OCO3	17.9	-17.9	0.5%	-13.7%	-5.1%	?	·
46	COc1ccc(-c2noc(CN(C(=O)C(C)(C)C)C(C)C)n2)cc1	5.3	-2.2	-2.3%	0.7%	13.6%	5.7	4.2%
47	COc1ccc(-c2cc(C(=O)N3CCN(c4ccccc4OC)CC3)no2)cc1OC	-2.6	2.6	-12.5%	·	-20.2%	-7.4	21.8%
48	CC1C(=O)C(C)C(c2ccc(Cl)cc2)NC1c1ccc(Cl)cc1 (centres undefined)	·	·	-13.3%	·	·	13.7	9.0%
49	N#C/C(=C\Nc1ccccc1SC(F)(F)F)c1nc(-c2ccc(F)cc2)cs1	?	10.1	-11.8%	0.6%	?	1.0	-22.1%
50	N#Cc1ccc(C(=O)Nc2nnc(-c3cccs3)o2)cc1	-1.8	-0.5	-20.2%	1.9%	8.2%	-0.7	-17.2%
51	COCC(C)n1c(C)cc(C(=O)COC(=O)c2oc3ccccc3c2C)c1C (centres undefined)	9.9	0.1	-11.9%	-1.0%	-2.6%	-14.8	-19.6%
52	CC(C)[C@H](NC(=O)CCn1nnc2ccccc2c1=O)C(=O)O	10.4	2.7	17.8%	1.4%	8.4%	0.0	19.1%
53	CCOC(=O)Cc1sc(N)nc1C	4.3	13.4	7.0%	-2.2%	0.0%	-3.7	-1.8%

# Part of the list above, with one line to a screen.
(49) N#C/C(=C\Nc1ccccc1SC(F)(F)F)c1nc(-c2ccc(F)cc2)cs1
(53) CCOC(=O)Cc1sc(N)nc1C
(50) N#Cc1ccc(C(=O)Nc2nnc(-c3cccs3)o2)cc1
(51) COCC(C)n1c(C)cc(C(=O)COC(=O)c2oc3ccccc3c2C)c1C (centres undefined)
(48) CC1C(=O)C(C)C(c2ccc(Cl)cc2)NC1c1ccc(Cl)cc1 (centres undefined)

assay / entry | 49 | 53 | 50 | 51 | 48
TRPV1 PAM | ? | 4.3 | -1.8 | 9.9 | ·
Menin MLL FP FL | 10.1 | 13.4 | -0.5 | 0.1 | ·
gsp antag | -11.8% | 7.0% | -20.2% | -11.9% | -13.3%
ClpP mod | 0.6% | -2.2% | 1.9% | -1.0% | ·
Sfp inh | ? | 0.0% | 8.2% | -2.6% | ·
CtBP-E1A blk | 1.0 | -3.7 | -0.7 | -14.8 | 13.7
gsp agonist | -22.1% | -1.8% | -17.2% | -19.6% | 9.0%
